Compound activity deposited in PubChem by National Center for Advancing Translational Sciences (NCATS).
Methyltransferases – Primary Screen for Target Class Profiling of Small Molecule Inhibitors of Methyltransferases. 25,000 compounds, 3.9% hits. purified enzyme, MTase-Glo SAH luminescence; hits give low values. calls only at 40 µM; active = -50% or lower on at least one of six enzymes; inconclusive = the cases between; inactive = as a rule above -30% on all six;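 further: enzymes were COMT GAMT GNMT HNMT NNMT and PNMT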
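Each enzyme was assayed with SAM and its substrate. SAH formation detected by MTase-Glo luminescence; single-point 40 uM screen[…].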
Calls only; i = inactive; u = inconclusive; + = active, no number. On the % scale 0 is the no-effect control and ±100 the full control effect. The list is partial; rates above refer to the full screens.

SMILES	Methyltransferases
CCCn1c(=O)c2ccc(C(=O)NC3CCCC3)cc2n2c(=O)n(CC(=O)Nc3ccccc3CC)nc12	i
CCCOc1ccc(-c2nc(OC)c3ccccc3n2)cc1	i
C1Cc2[nH]nc(-c3nn[nH]n3)c2C1	i
CCOc1ccc(CNC(=O)Cn2ccc3cc(S(=O)(=O)N4CCCCC4)ccc32)cc1	i
O=C1COc2ccc(OCc3cncs3)nc2CN1Cc1ccc(F)cc1	i
Cc1ccc(CN2C(=O)c3cc4ccccc4n3CC2(C)C(=O)NCCC(C)C)o1 (stereo unspecified)	i
COc1ccc(CNC(=O)c2cc3n(n2)CC(C)(C(=O)NC2CCCCCC2)N(C)C3=O)c(OC)c1 (stereo unspecified)	i
COC(=O)c1ncn2c1C(=O)N(Cc1ccc(OC)cc1)C(C)(C(=O)NCCCOC(C)C)C2 (stereo unspecified)	i
COc1nc2c(cc1CNC(=O)c1cccnc1C)C(=O)N(C1CCCC1)C2	i
CCCn1c(=O)c2ccc(C(=O)NC3CCCC3)cc2n2c(=O)n(CC(=O)NCc3ccccc3)nc12	i
CCN1C(=O)c2cc(C(=O)NCc3ccccc3C)nn2CC1(C)C(=O)NC1CCCC1 (stereo unspecified)	i
Cc1cc2c(cc3n2CC(C)(C(=O)NC2CCCCCC2)N(Cc2cccs2)C3=O)o1 (stereo unspecified)	i
Cc1ccc(Cl)cc1NC(=O)N1CCn2cccc2C1Cc1ccccc1 (stereo unspecified)	i
CCC(C)NC(=O)c1ccc2c(=O)n(CC(C)C)c3nn(CC(=O)c4ccc(C)cc4)c(=O)n3c2c1 (stereo unspecified)	i
COc1ccc2cc(C(C)C(=O)Oc3ccc(C(N)=S)cc3)ccc2c1 (stereo unspecified)	i
Cc1ccccc1N1C(=O)c2cc3sccc3n2CC1(C)C(=O)NC1CCCC(C)C1C (stereo unspecified)	i
C=C[C@](C)(CC/C=C(\C)C(=O)O)O[C@@H]1OC[C@H](O)[C@H](O)[C@H]1O	+
CC(=O)O[C@H]1C[C@H](OC(C)=O)[C@]2(C)[C@H](CC[C@@]34O[C@@H]3C3=C(C)C(=O)O[C@@H]3C[C@H]42)C1(C)C	i
O=C([C@@H](Cc1cccc(C(F)(F)F)c1)NS(=O)(=O)c1cc(F)c2c(c1)CCNC2)N1CCCC1	i
C=CCn1c(=O)c2ccc(C(=O)NC(C)CC)cc2n2c(=O)n(CC(=O)Nc3ccc(C)cc3)nc12 (stereo unspecified)	i
O=C(NC1CCCC1)c1ccc2c(=O)n(Cc3ccccc3)c3nn(Cc4ccc(F)cc4)c(=O)n3c2c1	i
Cc1cccc(CNC(=O)C2(C)Cn3cnc(C(=O)NC4CC4)c3C(=O)N2C2CC2)c1 (stereo unspecified)	i
CN(C)CCC=C1c2ccccc2CCc2ccccc21	+
COc1ccc(-c2n[nH]n3c2nc(=O)c2ccc(C(=O)NCc4ccc(F)cc4)cc23)cc1	i
O=C(Nc1ccccc1)N1CCN(Cc2ccc3ccccc3n2)CC1	i

More results.
SMILES	Methyltransferases
Cc1ccc(C)c(Cn2nc3n(CCC(C)C)c(=O)c4ccccc4n3c2=O)c1	i
CC(C)CCn1c(=O)c2ccccc2n2c(CCC(=O)NCCCN3CCN(c4ccccc4F)CC3)nnc12	i
COc1ccc(NS(=O)(=O)c2cc3[nH]c(=O)[nH]c3cc2C)cc1	i
C=C1CC[C@@H]2[C@](C)(CO)[C@H](O)CC[C@@]2(C)[C@@H]1/C=C/C1=CCOC1=O	i
CC1(C)CC2C3=CCC4[C@@]5(C)CC[C@H](OC6OCC(O)C(OC7OC(CO)C(O)C(O)C7O)C6O)C(C)(C)C5CC[C@@]4(C)[C@]3(C)C[C@H](O)[C@@]2(CO)[C@H](OC(=O)c2ccccc2)C1 (stereo partly specified)	i
COc1ccc(CCNC(=O)c2c(C)noc2-c2cc(OC)cc(OC)c2)cc1	i
CC(C)c1ccc(-n2cc(CN3CCN(C(=O)N(C)C)CC3)cn2)cc1	i
COc1ccccc1N1CCCc2ncc(C(=O)N3CCN(C(C)=O)CC3)cc21	i
COc1ccc(C(=O)Cn2nc3n(Cc4ccc(C)cc4)c(=O)c4ccccc4n3c2=O)cc1	i
COC1CCC12CCNCC2 (stereo unspecified)	i
CC(C)=CCC[C@@](C)(O)[C@H]1CC[C@]2(C)[C@@H]1[C@H](O)CC1[C@@]3(C)CC[C@H](O[C@@H]4O[C@H](CO)[C@@H](O)[C@H](O)[C@H]4O[C@@H]4O[C@H](CO)[C@@H](O)[C@H](O)[C@H]4O)C(C)(C)[C@@H]3CC[C@]12C (stereo partly specified)	i
CC(C)(C)c1ccc(C(=O)NC(Cc2c[nH]c3ccccc23)C(=O)OCC(=O)c2ccccc2)cc1 (stereo unspecified)	i
O=C1NCCCCCN(C(=O)C2CCC2)[C@H]2CCCC[C@@H]12	i
C#CCNC(=O)C[C@@H]1c2nc(NC(=O)OCC=C)sc2C[C@@H]2[C@](C)(CO)[C@H](O)CC[C@]21C	i
Cn1c(=O)c2ccc(C(=O)NC3CCCC3)cc2n2c(=O)n(Cc3ccccc3)nc12	i
CCCCc1nc2cc(/C=C/C(=O)NO)ccc2n1CCN(CC)CC	u
O=c1nc2c(-c3ccccc3Cl)n[nH]n2c2ccc(Cl)cc12	i
CCn1c(=O)n(CC)c2cc(S(=O)(=O)N3CCN(Cc4ccc5c(c4)OCO5)CC3)ccc21	i
CC(C)Oc1ccc(CNC(=O)C(C)n2ccc3cc(S(=O)(=O)N4CCCC4)ccc32)cc1 (stereo unspecified)	i
Nc1nc2c(c(=O)[nH]1)C[C@@H](CCc1ccc(C(=O)N[C@@H](CCC(=O)O)C(=O)O)cc1)CN2	i
COc1ccc(C(=O)N[C@H]2COC[C@H]2Cc2cc(C)no2)c(OC)n1	i
CNCCN1CCC(OCc2ccccc2)CC1	u
Cc1cccc(-c2n[nH]n3c2nc(=O)c2ccc(C(=O)N4CCN(c5ccc(F)cc5)CC4)cc23)c1	i
Cn1c(=O)c2ccc(C(=O)NC3CCCCC3)cc2n2c(=O)n(CC(=O)Nc3ccccc3)nc12	i
Cc1cc(C)c2nonc2c1S(=O)(=O)N1C[C@@H](N(C)C)[C@H](C(C)C)C1	i

Rewritten field by field: entries from further up
canonical_smiles: Cc1cc(C)c2nonc2c1S(=O)(=O)N1C[C@@H](N(C)C)[C@H](C(C)C)C1
  Methyltransferases: i
canonical_smiles: Cc1ccc(C)c(Cn2nc3n(CCC(C)C)c(=O)c4ccccc4n3c2=O)c1
  Methyltransferases: i
canonical_smiles: CC(C)=CCC[C@@](C)(O)[C@H]1CC[C@]2(C)[C@@H]1[C@H](O)CC1[C@@]3(C)CC[C@H](O[C@@H]4O[C@H](CO)[C@@H](O)[C@H](O)[C@H]4O[C@@H]4O[C@H](CO)[C@@H](O)[C@H](O)[C@H]4O)C(C)(C)[C@@H]3CC[C@]12C (stereo partly specified)
  Methyltransferases: i
canonical_smiles: C#CCNC(=O)C[C@@H]1c2nc(NC(=O)OCC=C)sc2C[C@@H]2[C@](C)(CO)[C@H](O)CC[C@]21C
  Methyltransferases: i

(further entries)
SMILES	Methyltransferases
O=C(NC1CCCC1)C1c2ccccc2C(=O)N(C2CCCC2)C12CCCCC2 (stereo unspecified)	i
COc1cccc(S(=O)(=O)N2CC3CN(C)CC(C2)O3)c1	i
COc1ccc(C(=O)N2CCC(C3CCN(S(C)(=O)=O)CC3)C2)cn1 (stereo unspecified)	i
O=C(c1cccc(-c2ccccn2)c1)N1CCN([S+](=O)([O-])c2ccccc2)CC1	i
CC1(C(=O)NC2CCCCC2)Cn2c(cc3ccccc32)C(=O)N1Cc1ccccc1Cl (stereo unspecified)	i
O=S(=O)(NCCn1c(-c2ccc(F)cc2)nc2ccccc21)c1ccc(Br)cc1	i
NCCCCN=C(N)N	i
C[C@@H](NC(=O)C1=C[C@@H](NS(=O)(=O)c2cccc(C(F)(F)F)c2)[C@@H](O)[C@H](O)C1)C(N)=O	i
CNC(=O)c1cn2c(n1)CN(C(=O)OCc1ccccc1)CC2	i
CN1C(=O)c2cc(C(=O)NCCC3=CCCCC3)nn2CC1(C)C(=O)NCc1ccccc1 (stereo unspecified)	i
CCCCS(=O)(=O)N1C[C@@H](C(N)=O)[C@H](C2CCN(C)CC2)C1	i
Cc1ccc(C(=O)N2CCC(N3C(=O)C4(CCCC4)C3c3scnc3C)CC2)cn1 (stereo unspecified)	i
CC1CCN(CC2CCCCCN2C(=O)CC2CCCC2)CC1 (stereo unspecified)	i
OC[C@H]1O[C@@H](n2cnc3cncnc32)[C@H](O)[C@@H]1O	+
Cc1cccc(N2CCN(S(=O)(=O)c3ccc4[nH]c(=O)[nH]c4c3)CC2)c1C	i
O=C(c1ccc2c(c1)OCCO2)N1CCc2[nH]nc(-c3ccccc3F)c2C1	i
CC(=O)N1CCC(N2CC3(C2)C(=O)N(CCCN2CCCC2=O)C(=O)[C@@H]2C[C@@H](O)CN23)CC1	i
C/C(=C\C(=O)OCCCCCCCCC(=O)O)C[C@@H]1OC[C@H](C[C@@H]2O[C@H]2[C@@H](C)[C@H](C)O)[C@@H](O)[C@H]1O	i
CCCN1C(=O)c2c(C(=O)NCc3ccc(OC)cc3OC)ncn2CC1(C)C(=O)NC1CCCC1 (stereo unspecified)	i
CC(C)Cn1c(=O)c2ccccc2n2c(CCC(=O)Nc3ccccc3)nnc12	i
Cc1ccc2c(cnn2C(=O)CCCC(=O)N2CCN(c3cccc(Cl)c3)CC2)c1	i
COCC1CN(Cc2ccc(C(C)C)cc2)CC12CCNCC2 (stereo unspecified)	i
COc1ccccc1CNC(=O)C1(C)Cn2nc(-c3ccccc3)cc2C(=O)N1C1CCCCCC1 (stereo unspecified)	i
CCOC(=O)c1cc2n(n1)CC(C)(C(=O)NCCC(C)C)N(Cc1cccc(C)c1)C2=O (stereo unspecified)	i
C[S+](=O)([O-])N1CCn2ncc(C(=O)NCc3ccc(Cl)nc3)c2C1	i

Compounds listed so far containing a CF3 group, in the order listed:
SMILES	Methyltransferases
O=C([C@@H](Cc1cccc(C(F)(F)F)c1)NS(=O)(=O)c1cc(F)c2c(c1)CCNC2)N1CCCC1	i
C[C@@H](NC(=O)C1=C[C@@H](NS(=O)(=O)c2cccc(C(F)(F)F)c2)[C@@H](O)[C@H](O)C1)C(N)=O	i

Next part.
SMILES	Methyltransferases
O=c1c2ccccc2n2c(SCc3ccccc3)nnc2n1Cc1ccccc1	i
OC1(c2csc(CN3CCOCC3)n2)CCN(C2CCCC2)CC1	i
CCC1Oc2ccc(NC(=O)c3ccccc3OC(C)=O)cc2CN(Cc2ccccc2F)C1=O (stereo unspecified)	i
Cc1ccccc1NC(=O)c1cc2n(n1)CC(C)(C(=O)NC1CCCCCC1)N(C)C2=O (stereo unspecified)	i
C=C1C2(CCC(=O)OC2(C)C)CC(OC(=O)/C(C)=C/C)C2(C)C13OC14C(=O)OC(C)(C(=O)C12C(=O)OC4C)C3OC(C)=O (stereo unspecified)	i
CCC(C(=O)NCc1ccccc1Cl)n1ccc2cc(S(=O)(=O)N3CCCCC3)ccc21 (stereo unspecified)	i
CCOC(=O)c1c(C)c2n(c1C)CC(C)(C(=O)NC1CCCCCC1)N(Cc1ccc(Cl)cc1)C2=O (stereo unspecified)	i
CCOC(=O)c1cccc(NC(=O)N2CC[C@@H](CC(=O)NCc3ccccc3OC)[C@@H](CC)C2)c1	i
Cc1noc(C)c1CC(=O)N1CC[C@@H](NC(=O)c2cnccn2)[C@H](O)C1	i
O=C(NCCCc1ccccc1)C1CN(C2CCCC2)C(=O)N1 (stereo unspecified)	i
C=C(NC(=O)C(=C)NC(=O)c1csc(C2=NC3c4csc(n4)C4NC(=O)c5csc(n5)C(C(C)(O)C(C)O)NC(=O)C5CSC(=N5)/C(=C/C)NC(=O)C(C(C)O)NC(=O)c5csc(n5)C3(CC2)NC(=O)C(C)NC(=O)C(=C)NC(=O)C(C)NC(=O)C(C(C)CC)NC2C=Cc3c(C(C)O)cc(nc3C2O)C(=O)OC4C)n1)C(N)=O (stereo unspecified)	u
Cc1cc2c(cc3n2CC(C)(C(=O)NC2CCCCCC2)N(CCN2CCOCC2)C3=O)o1 (stereo unspecified)	i
Cc1c(OCC(=O)OCc2ccccc2)ccc2c(-c3ccccc3)cc(=O)oc12	i
CCn1ccc(C(=O)N2CC3CC(C2)[C@H]2CCCC(=O)N2C3)n1 (stereo partly specified)	i
Cc1nc(CCNC(=O)c2cnc(-c3cccnc3)nc2)cc(=O)[nH]1	i
C=C1CC[C@@]2(OC1)O[C@H]1CC3C4CC=C5C[C@@H](O[C@@H]6O[C@@H](C)[C@H](O)[C@@H](O)[C@H]6O)C[C@@H](O[C@@H]6O[C@H](C)[C@H](O)[C@H](O)[C@H]6O[C@@H]6O[C@@H](C)[C@H](O)[C@@H](O)[C@H]6O)[C@]5(C)C4CC[C@]3(C)[C@H]1[C@@H]2C (stereo partly specified)	i
CN(Cc1ccc2nonc2c1)Cc1cn(-c2ccccc2)nn1	i
CNC(=O)c1cc(-c2cnc(OC)nc2)cc2c1OCCN2Cc1cccnc1	i
COc1cccc2c1NC(c1ccc(Br)cc1)C1CC=CC21 (stereo unspecified)	i
CC(C)Cn1c(=O)c2ccc(C(=O)NC(C)C)cc2n2c(=O)n(Cc3ccccc3)nc12	i
CCCn1c(=O)c2ccc(C(=O)NC3CCCC3)cc2n2c(=O)n(Cc3cccc(OC)c3)nc12	i
Cn1cc(CN2CCN(c3ccc(C#N)cn3)CC2)c(-c2ccccc2)n1	i
COCC1(CNC(=O)c2cnccn2)C[C@@H](O)[C@@H](O)C1 (stereo partly specified)	i
CCCNC(C)C(=O)Nc1ccccc1C (stereo unspecified)	i
CC(C)[S+](=O)([O-])N1CCC2(CC1)CC(c1cccc(C(F)(F)F)c1)=NO2	i
O=C(CCc1nnn2c1CN(C(=O)COc1ccc(F)cc1)CC2)NCc1ccccc1	i
CCC1(N2CCN(S(=O)(=O)c3cc(F)ccc3C)CC2)CCN(C(=O)NC)C1 (stereo unspecified)	i

Arranged by heavy-atom count (rising): three of the compounds above
SMILES	Methyltransferases
COc1cccc2c1NC(c1ccc(Br)cc1)C1CC=CC21 (stereo unspecified)	i
CCn1ccc(C(=O)N2CC3CC(C2)[C@H]2CCCC(=O)N2C3)n1 (stereo partly specified)	i
O=C(CCc1nnn2c1CN(C(=O)COc1ccc(F)cc1)CC2)NCc1ccccc1	i
